RE007 growth inh: less growth of the S. pombe RE007 Vpr strain | AID 651644 | Potency, µM (top dose mostly 92.2 µM), without a hit: at the highest dose activity change, negative = less growth | actives 0.21% (n = 360,000) | S. pombe RE007 Vpr strain, BacTiter-Glo ATP luminescence, 24 h; control for the full effect not named in the record; active = well fitted falling curve with a large enough effect; inconclusive = small, poorly fitted or top-dose-only effect; inactive = no such curve, though single readings can be large or run the other way;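 note: nearly all actives have a fitted effect of over 50% in size; the assay follows cell death caused by Vpr and the record does not say whether a fall means rescue or toxicity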
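Fission yeast RE007 carrying one integrated HIV-1 vpr copy, seeded at OD 0.01 in PMG+AL medium with 23 nL pinned compound. Grown 24 h at 30 degrees; viability read by BacTiter-Glo luminescence after 5 min.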
StopGo reporter: FMDV 2A StopGo reporter, luciferase signal. human cells with a luciferase reporter of 2A StopGo recoding; control for the full effect not named in the record. Potency, µM (titrated, usually from 57.9 µM), for inactives: at the top dose signal change, negative = less light. actives 1.2% (n = 410,000). AID 1159524; active = well fitted falling curve with a large enough effect; inconclusive = small, poorly fitted or top-dose-only effect; inactive = no such curve, though single readings can be large or run the other way; tested in HEK293T cells; note: nearly all actives have a fitted effect of over 45% in size; luciferase light after 4 h
Starred values were filed as active, the others as inactive; ? = inconclusive; [ ] = remark or other dose. % is set by controls: 0 for no effect and ±100 for the full control effect; potency is the fitted concentration of half-maximal effect.

| SMILES | RE007 growth inh | StopGo reporter |
| --- | --- | --- |
| C[C@H](CO)N1C[C@H](C)[C@H](CN(C)C(=O)c2ccccc2)OCc2ccccc2-c2c(n(C)c3ccccc23)C1=O | 2% | -7% |
| O=S(=O)(c1cc(Cl)cc(Cl)c1)N1Cc2cc(-c3cccc(F)c3)ccc2-n2nncc2C1 | 1% | -20% |
| COCCN1C(=O)CCC1(C)c1nnnn1-c1c(C)cccc1C (configuration not stated) | -9% | -14% |
| CCC(c1nnnn1-c1ccc2c(c1)OCCO2)N1CCN(c2ccc(OC)cc2)CC1 (configuration not stated) | 7% | -26% |
| COc1ccc(C(=O)N2CCN(S(=O)(=O)c3ccc(Cl)cc3)CC2)cc1S(=O)(=O)N1CCOCC1 | -6% | -28% |
| CC(=O)NC(C)(c1ccccc1)c1nc(-c2csc3ccccc23)cs1 (configuration not stated) | 14% | -16% |
| CC1(C(=O)Nc2ccc3ccccc3c2)CCC(=O)N1CC(F)(F)F (configuration not stated) | -10% | -4% |
| COC(=O)[C@@H](Cc1ccccc1)NC(=O)Cn1cc(C)c(=O)[nH]c1=O | 9% | -6% |
| COc1ccccc1-c1csc(C(C)(NC(C)=O)c2ccccc2)n1 (configuration not stated) | -2% | -14% |
| CCCNC(=O)c1cc2c(c(-c3cccc(-c4ccccc4F)c3)n1)[C@@H](CCO)N(C(=O)CC1CC1)C2 | ? | 0% |
| CCOc1ccc(CCN2C(=O)C(=O)N([C@@H](CC(C)C)CN3CCC[C@H]3CN3C(=O)C(=O)NC[C@@H]3CC(C)C)C[C@@H]2CC(C)C)cc1 | -1% | ? |
| COC(=O)[C@@]12C[C@@H](CC(=O)N3CCCCC3)C(=O)N(CCc3ccc(OC)c(OC)c3)C1=CCC(C)(C)C2 | 0% | -9% |
| FC(F)(F)c1cccc(-c2nc3ccccc3n2C(c2ccccc2)c2nc3ccccc3[nH]2)c1 (configuration not stated) | -19% | 34%[activator] |
| Cc1cc(C)cc(Cn2cc(CN3CC(N4CCCCC4)CS3(=O)=O)nn2)c1 (configuration not stated) | -11% | -12% |
| O=C(NCC1CC1)C1Cc2c(-c3ccc(Cl)cc3)ccnc2O1 (configuration not stated) | -14% | -14% |
| COC(=O)[C@@]12C[C@@H](CC(=O)N3CCN(C(=O)c4ccco4)CC3)C(=O)N(Cc3ccc4c(c3)OCO4)C1=CCC(C)(C)C2 | 0% | -16% |
| Cc1ccc(CN2CC(C(=O)Nc3nc(C)cs3)CC2=O)cc1 (configuration not stated) | -8% | 0% |
| COc1ccc(CNC(=O)C[C@@H]2C=C[C@@H](NS(=O)(=O)c3cccc(OC)c3)[C@@H](CO)O2)cc1 | 8% | -20% |
| Nc1c(Cl)cc(-c2csc(NC(CO)c3nc4ccccc4n3CCOCCO)n2)cc1Cl (configuration not stated) | -10% | -10% |
| O=C(Nc1cccc2cccnc12)c1csc([C@@H]2O[C@H](CO)[C@H](O)[C@H](O)[C@H]2O)n1 | 9% | -12% |
| CC(C)C[C@H]1CNC(=S)N1CC1CCCN1C[C@H](CC(C)C)N1C[C@H](CC(C)C)N(CC2CCCCCC2)C1=S (some centres not stated) | 9% | ? |
| CN(Cc1ccc(Cl)c(Cl)c1)C(=O)C1CC(=O)N(c2ccc3c(c2)OCCO3)C1 (configuration not stated) | -2% | -14% |
| CCOC(=O)C1CCCN(C(=O)c2ccc(OC)cc2OC)CC1 (configuration not stated) | -19%[18.4 µM] | -4% |
| O=C(Nc1ccccc1)c1cc(C2COCCN2C(=O)c2cccs2)on1 (configuration not stated) | 14% | -3% |
| CNc1ncnc2c1ncn2[C@H]1CN(Cc2cccs2)C[C@@H](CO)O1 | 10% | -2% |
| Cc1cccc(OCCNC(=O)CCc2ccccc2)c1 | 18% | -7% |
| CSc1ncccc1C(=O)N1CCCC(N2CCN(c3ccccc3C)CC2)C1 (configuration not stated) | -4% | ? |
| C[C@H]1CN(CCc2ccccc2)C(=O)[C@@H]1CC(=O)Nc1ccccc1 | -12% | 2% |
| Cc1c(N(C)S(=O)(=O)c2cccc(C(=O)NCc3cccnc3)c2)c(=O)n(-c2ccccc2)n1C | -5% | -20% |
| Nc1ccn([C@@H]2O[C@H](C(=O)N3CCN(Cc4ccccn4)CC3)[C@@H](O)[C@H]2O)c(=O)n1 | -5% | -29% |
| CCC(=NNS(=O)(=O)c1ccc(C)cc1)c1ccc(OC)c(C)c1 | 5% | 38%[activator] |
| COc1ccc(CCNS(=O)(=O)c2ccc3c(c2)CC(C)N3C(=O)C2CC2)cc1OC (configuration not stated) | -7% | 1% |
| CN(C)c1cccc(NC(=O)C2(C)Cc3c(-c4cccnc4)ccnc3O2)c1 (configuration not stated) | -10%[18.4 µM] | 3% |
| COc1ccc(NC(=O)c2ccc(NC(=O)c3cccnc3)cc2)cc1 | -1% | -15% |
| CSCCC(NC(=O)c1ccccc1Br)C(=O)N1CCN(C/C=C/c2ccccc2)CC1 (configuration not stated) | 3% | -29% |
| CCc1nc2c(OCc3ccccc3C(=O)OC)cccn2c1N(C)C(=O)CC(C)C | 2% | -23% |
| O=C(NC1CC1)c1cccc(-c2cncc3nccn23)c1 | 31% | -9% |
| O=C(NCCCN1CCC(Cc2ccccc2)CC1)c1ccc(CS(=O)c2ccccc2Cl)o1 (configuration not stated) | -11% | ? |
| Cc1cccc(NC(=O)CN(C)C(=O)Cc2ccc(-c3ccccc3)cc2)c1C | 5% | -19% |
| CCc1nc2ccc(C(=O)NC3CCN(Cc4ccccc4)CC3)cn2c1N(C)Cc1cccs1 | -13% | ? |
| OCc1cccc(-c2cnc3c(Nc4cccc(OC(F)(F)C(F)F)c4)nccn23)c1 | -13% | -14% |
| C#CCOCCOCCOCCNc1nc(N2CCN(C(=O)Cn3cc(CC(C)O)nn3)CC2)nc(N2CCN(C(=O)[C@H](CCCCN)n3cc(CCCC)nn3)CC2)n1 (some centres not stated) | -1% | -13% |
| CSCCC(c1nnnn1-c1c(C)cccc1C)N1CCC(n2c(=O)[nH]c3ccccc32)CC1 (configuration not stated) | 6% | ? |
| O=C1CCCC[C@@H](CO)[C@H](O)C[C@H](c2ccccc2)O1 | 8% | -18% |
| Cc1cscc1-c1ccc(C(=O)Nc2c(C)cccc2C)o1 | -28% | -2% |
| COCCNc1nc(NCc2cccs2)nc2ccsc12 | -16% | ? |
| Cc1ccc(Cn2cc(CN3CC(N4CCN(Cc5cccc(C)c5)CC4)CS3(=O)=O)nn2)cc1 (configuration not stated) | -20% | ? |
| O=C(c1cccc(Cl)c1)N1CCC2CC1c1cc(-c3ccc(F)cc3)ccc12 (configuration not stated) | 8% | -4% |
| O=c1cc(O)cc2n1CCC2 | -16%[18.4 µM] | -8% |
| Cc1ccc(S(=O)(=O)N2C[C@H]3C(=O)C[C@@H](c4ccccc4)N(S(=O)(=O)c4ccccc4)[C@H]3C[C@H]2c2ccccc2)cc1 | 1% | -16% |
| COc1cc(F)ccc1-c1csc(C(C)(O)c2ccc(F)c(F)c2)n1 (configuration not stated) | ? | -20% |
| C[C@@H]1CCC[C@@]2(O[C@@H](CCO)C[C@@H](O)[C@@H]2O)O1 | -13% | -8% |
| FC(F)(F)c1ccccc1Cc1c(-c2ccc(Cl)cc2)nc2c3ccccc3ccn12 | 18% | -17% |
| CCCNC(=O)c1cc(C2CCCN(C(=O)c3ccc4c(c3)CCO4)C2)on1 (configuration not stated) | 7% | -4% |
| CC1(C(=O)Nc2nccs2)CCN1C(=O)C1(c2ccccc2)CC1 (configuration not stated) | 2%[18.4 µM] | -7% |
| C=CCN(Cc1ccc(Br)s1)C(=O)c1ccc(OCc2c(C)noc2C)cc1 | 14% | -16% |
| COc1ccc(S(=O)(=O)N2CCCC(C(=O)NCc3cccnc3)C2)cc1C (configuration not stated) | 4% | -20% |
| CCc1nc2c(OCc3cc(Cl)cc(Cl)c3)cccn2c1N(C)C(=O)CC(C)C | -11% | 0% |
| CCCCNC(=O)C1C(c2ccc(C(F)(F)F)cc2)=Nc2ccccc2N1C(=O)c1cccc(C(F)(F)F)c1 (configuration not stated) | -3% | -1% |
| COc1ccc(NC(=O)c2sc(=O)n(Cc3ccc4ccccc4c3)c2C)cc1OC | -5%[18.4 µM] | -21% |

Following part.
SMILES,RE007 growth inh,StopGo reporter
COc1cccc(C(N)c2nc(-c3csc4ccccc34)cs2)c1 (configuration not stated),-17%[18.4 µM],11%
Cc1ccc(C(=Cc2ccc([N+](=O)[O-])cc2)C(=O)O)cc1,17%,-25%
C[C@@H]1CN([C@@H](C)CO)C(=O)CCCn2cc(nn2)CO[C@H]1CN(C)S(=O)(=O)c1cccc(C#N)c1,-9%,-11%
COC(=O)C12CCc3cc(OC)ccc3C1=CC(=O)C2 (configuration not stated),3%,4%
CC(C)NC(=O)c1cc(C2CCCCN2C(=O)c2cc(C(C)(C)C)nn2C)on1 (configuration not stated),8%[18.4 µM],-10%
Cc1cn([C@H]2C[C@H](O)[C@@H](CNCc3cccn3-c3nccs3)O2)c(=O)[nH]c1=O,-27%,-6%
CCN1C(=O)[C@H]2[C@@H](c3ccc(OC)cc3)N[C@]3(CCCN(Cc4ccc(OC)cc4)C3=O)[C@H]2C1=O,6%,-13%
COc1ccccc1CNc1nc(Nc2ccccc2Cl)c2sccc2n1,-25%,?
COc1ccc(-c2nc(CN3CCC(C(=O)NC4CCCc5ccccc54)CC3)c(C)o2)cc1OC (configuration not stated),6%,5%
O=C(NCC(F)(F)F)c1[nH]c(C(F)(F)F)nc1-c1ccccc1,-1%,-24%
Cc1[nH]c2ccccc2c1C(=O)c1cc([C@H](NC(=O)OC(C)(C)C)C(C)C)sc1N,0%,-21%
Cc1ccc(S(=O)(=O)CCC(=O)OCC(=O)NCc2ccc(F)cc2)cc1,0%,-27%
CCc1nc2ccc(C(=O)NCCOc3ccc(OC)cc3)cn2c1N(C=O)Cc1ccc(OC)cc1,-10%,29%
Cc1ccc(NC(=O)c2ncn(CCCNCC(C)c3ccccc3)n2)cc1C (configuration not stated),-15%,-29%
CCOC1CCCc2oc(-c3ccc(OC)cc3)c(C(=O)NCCCCO)c21 (configuration not stated),2%,-6%
Ic1ccccc1CN[C@@H]1C2CCN(CC2)[C@@H]1C(c1ccccc1)c1ccccc1,-4%[18.4 µM],?
COC(=O)C[C@H]1CC[C@@H](NS(=O)(=O)c2ccccc2)[C@@H](CO)O1,12%,-12%
CC1=C(C(=O)N(C)C)CC(CC(=O)NCc2cccc3ccccc23)C(=O)N1Cc1ccccc1 (configuration not stated),-3%,0%
CC(=O)Nc1ccc(Nc2nccc(C)n2)cc1,12%,27%
COCCNC(=O)C(=O)NCC1CCCN1S(=O)(=O)c1cccs1 (configuration not stated),11%,-16%
COC(=O)C1=C/CCCN(C(c2ccccc2)c2ccccc2)/C=C\1C(=O)OC,16%,0%
O=C(Cc1ccc(NC(=O)C2CCN(C(=O)c3ccccc3)CC2)cc1)Nc1ccc(C(=O)N2CCOCC2)cc1,-1%,0%
C[C@H](CO)N1C[C@H](C)[C@H](CN(C)S(=O)(=O)c2cccc(F)c2)Oc2ncc(-c3cccc(C(=O)N(C)C)c3)cc2C1=O,-22%,12%
CC(=O)c1cccc(NC(=O)C2(C)Cc3c(-c4cccc(C(F)(F)F)c4)ccnc3O2)c1 (configuration not stated),7%[18.4 µM],-15%
CC1(C(=O)Nc2ccc(Cl)c(Cl)c2)CCN1C(=O)CCC1CCCC1 (configuration not stated),10%,-27%
Cc1ccc(NC(=O)c2cc(S(=O)(=O)N3CCCCC3)ccc2N2CCOCC2)cc1S(=O)(=O)N(C)C,1%,-2%
Cc1ccccc1Cn1c(C)c(C(=O)NCC(C)C)sc1=O,24%,-23%
CCOC(=O)[C@]12Cc3c(cc(OC)c(OC)c3OC)[C@H]1N(Cc1ccccc1)C(=O)c1ccccc12,12%,-5%
O=C(NCc1ccccc1F)Nc1nnc([C@H]2C[C@H](O)[C@@H](CO)O2)s1,55%[18.4 µM],-9%
COc1ccc(C2=CC(=O)C[C@H](CN3C(=O)c4ccccc4C3=O)N(C(=O)OC(C)(C)C)O2)cc1,-14%,0%
O=C(NCc1ccccc1)C1(C(F)(F)F)C/C(=C\CCO)CCCO1 (configuration not stated),1%,-5%
O=C1CC[C@@H]2CC(N3CCN(c4ccccc4)CC3)C[C@@H]3CCN1[C@H]23 (some centres not stated),-14%,-21%
COc1ccc(C(=O)NC(C(=O)N2CCN(C/C=C/c3ccccc3)CC2)C(C)C)cc1 (configuration not stated),-12%,?
Cc1nc(C(F)(F)F)ccc1C(=O)N1CCCC(C(=O)O)CC1 (configuration not stated),9%[18.4 µM],-11%

6 records drawn at random from the list so far, as already listed:
SMILES,RE007 growth inh,StopGo reporter
Cc1cccc(OCCNC(=O)CCc2ccccc2)c1,18%,-7%
CC1=C(C(=O)N(C)C)CC(CC(=O)NCc2cccc3ccccc23)C(=O)N1Cc1ccccc1 (configuration not stated),-3%,0%
Cc1c(N(C)S(=O)(=O)c2cccc(C(=O)NCc3cccnc3)c2)c(=O)n(-c2ccccc2)n1C,-5%,-20%
Cc1cscc1-c1ccc(C(=O)Nc2c(C)cccc2C)o1,-28%,-2%
C#CCOCCOCCOCCNc1nc(N2CCN(C(=O)Cn3cc(CC(C)O)nn3)CC2)nc(N2CCN(C(=O)[C@H](CCCCN)n3cc(CCCC)nn3)CC2)n1 (some centres not stated),-1%,-13%
Cc1ccc(S(=O)(=O)CCC(=O)OCC(=O)NCc2ccc(F)cc2)cc1,0%,-27%

Screening data as filed in PubChem.

Some of the compounds tested (hit frequency here may not be typical).
